# RN4220 kill = growth inhibition of S. aureus RN4220, primary screen, OD600. 16 h. inhibition, % (concentration not given with the values). 330,000 tested, 0.33% active;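 active = z-score of -3 or lower and OD600 up to 0.18 on both plates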;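 also: plate controls were untreated cells for no effect and reference antibiotic for full effect; stock transfer was 100 nL into about 80 µL; one replicate is shown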
# BJeLR lethal = MLPCN primary cell-based screen for lethality selective to Ras in HRASV12 cells. BJeLR (HRASV12) viability, CellTiter-Glo ATP luminescence, 48 h; reference of the scale not given here. inhibition, % (concentration not given with the values). 300,000 tested, 0.17% active. AID 1554, 2009;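 active = replicate mean above 50%; inconclusive = above 50% but judged a plate artefact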;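 also: 50 nL library stock added to about 25 µL; numbers are from one replicate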
# PrP UTR inh = inhibition of PrP 5' UTR reporter expression; cell-based PrP 5' UTR mRNA reporter, plate reader; inhibition, % (test concentration not listed); 340,000 tested, 0.35% active; AID 488862, 2010;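 active = every replicate at 50% or more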;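 also: 0 = median of the neutral control wells; tested in H4 reporter cells; numbers are from one replicate; inactives centre near -14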
# Bead autofluor = flagged as autofluorescent in microsphere protease counterscreen. compound autofluorescence counterscreen, microsphere flow cytometry; active compounds read high. fluorescence intensity (concentration not given with the values). 360,000 tested, 3.1% active. AID 624483;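 active = at least 3 SD above the mean of all compounds, about 16000 in these data; inconclusive = too few beads counted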;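 also: 100 nL of 1 mM stock went into each well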
# Sa ugtP lethal = growth inhibition of ugtP-null S. aureus, primary screen, RN4220 ugtP deletion, OD600. growth inhibition, % (no concentration beside the values). 330,000 tested, 0.54% active. 16 h; some inactives read as strong as hits;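 active = z-score under -3 and OD600 up to 0.15 on both plates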;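 also: plate controls were untreated wells for no effect and antibiotic for full effect; wells of about 80 µL received 100 nL stock; the first replicate is given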
# Mtb hypoxia rep = PubChem AID 1159583. M. tuberculosis hypoxia-regulated fluorescent reporter, fluorescence. 300,000 tested, 0.1% active. fluorescence inhibition, % (concentration not given with the values);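 active = 35 to 45% if threefold the growth effect, above 45% if 1.5-fold the growth effect; inactive = the rest, general growth blockers included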;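 also: wells of about 50 µL received 100 nL stock; 0% = vehicle wells and 100% = reference inhibitor wells; whole bacteria with a GFP reporter of the hypoxia response; strong numbers were not always called active; many hits fall short of the cut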
# Mtb hypoxia rep growth = recorded beside Mtb hypoxia rep, whose call it bears; growth inhibition, %; measured here: M. tuberculosis growth (absorbance);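 0% = vehicle and 100% = reference antibiotic; read after six days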
# * hit, by the source's call; u = inconclusive; x = no result given.
SMILES	Sa ugtP lethal	Mtb hypoxia rep	BJeLR lethal	PrP UTR inh	Mtb hypoxia rep growth	Bead autofluor	RN4220 kill
CCn1c(SCC(=O)NN=Cc2c[nH]c3ccccc23)nnc1-c1ccc(C)cc1	-4	0	x	x	2	x	0.8
COC(CNc1ncnc2sc(-c3ccccc3)cc12)OC	-2	3	-5	-22	3	3898	5.6
COC(=O)c1sccc1NC(=O)c1cccc(Cl)c1	7	17	6	-14	4	6141	2.9
Cc1ccccc1Nc1nnc(SCC(=O)Nc2ccccc2[N+](=O)[O-])s1	-2	11	-16	-9	16	1993	16
COc1ccc(CC2(CO)CCN(C(C)Cc3ccc(Cl)cc3)CC2)cc1 (configuration not stated)	-5	-3	7	-8	-3	5049	-2.9
O=C(NCC1CCCO1)c1cc(C(=O)C2CCCCC2)c[nH]1 (configuration not stated)	1	0	-2	-4	-1	4475	0.2
O=C(Nc1ccccc1)c1ccccc1OCc1ccc(F)cc1	8	19	2	-25	9	4149	-1.3
O=C(O)c1ccc(CSc2nc(-c3ccccc3)cc(C(F)(F)F)n2)cc1	-1	6	-12	-15	1	2045	22
CCC(C)[C@H](NC(=O)[C@@H]1CSC2c3ccccc3C(=O)N21)C(=O)N1CCCCC1 (some centres not stated)	7	7	2	-11	5	5331	5.7
CC(C)Oc1ccc(S(=O)(=O)N2CCOCC2)cc1NC(=O)CC1CCCC1	4	6	x	-11	-1	6443	-0.2
Cc1ccc(C(=O)C2=C(O)C(=O)N(CCCn3ccnc3)C2c2ccc(OC(C)C)cc2)o1 (configuration not stated)	6	6	0	-13	-2	7072	-0.2
COc1ccc(NC(=O)CSCc2ccc([N+](=O)[O-])cc2)cc1OC	14	10	-2	-12	10	3131	3.4
COc1cccc(/C=N/n2c(=O)[nH]c3ccccc32)c1OC	x	x	-1	-51	x	2418	x
OC(CNCc1ccc2c(c1)OCO2)COc1ccc(F)cc1 (configuration not stated)	0	4	-13	-18	7	6220	1.2
CC(=O)Nc1ccc(-c2csc(Nc3cccc(C)n3)n2)cc1	29	15	-4	-54	3	3455	1.4
CCOc1ccc(C(=O)CCC(=O)Nc2ccc(C)c(S(=O)(=O)N3CCCCC3)c2)cc1	13	-1	x	-3	-4	4511	3.9
Cc1cc(C)nc(SCC(=O)NNC(=O)c2ccccc2C)n1	4	1	-8	-11	3	3229	2.5
O=C(NC(=S)Nc1ccc(O)cc1)c1ccccc1Cl	61	-2	-1	-44	-12	3528	5.6
Cc1nn(C(C)C)c(C)c1CN1CCCC(CCC(=O)NCc2ccccc2F)C1 (configuration not stated)	-5	7	-13	-15	16	u	-0.9
CCCc1cc(=O)[nH]c(SCc2ccccc2Cl)n1	-13	7	3	-15	6	20635*	8.7
O=C(CCl)Nc1nc(-c2ccco2)c(-c2ccco2)s1	-7	-6	-3	-18	9	2070	0.6
Cc1ccccc1-n1c(C)cc(C=NNC(=O)c2ccc(CN3CCOCC3)cc2)c1C	1	9	x	x	-7	x	-2.2
COc1ccc(N2C(=O)C(Cl)=C(Nc3c(C)n(C)n(-c4ccccc4)c3=O)C2=O)cc1	5	8	-6	-9	0	7361	4.2
Cc1cc(C)cc(NC(=O)CCNC(=O)c2ccc([N+](=O)[O-])cc2)c1	4	-17	-4	3	1	3407	1.5
O=C(Nc1ccc(F)cc1F)c1csc(-c2ccccc2)n1	12	3	2	-7	-5	2601	16
CCC(=O)NCCc1nc2cc(NC(=O)c3cccs3)ccc2n1C	4	13	-8	-43	0	4678	1.1
O=c1oc2cc(O)ccc2c2ccccc12	-2	7	-3	-5	-5	2942	0.9
CC1CC(C)CN(C(=O)CSc2nnc3ccccn23)C1 (configuration not stated)	10	2	x	-9	3	6249	3.8
CC(CCc1ccccc1)NC(=O)CCc1cn(C)c2ccccc12 (configuration not stated)	15	3	-1	-54	2	3865	1.5
CC1CC(C)CN(C(=O)CCCNC(=O)c2ccc(Cl)cc2)C1 (configuration not stated)	4	8	5	5	-5	4546	0.5
CCN1C(=O)[C@H]2[C@@H](c3ccc(C)cc3)N3C(=O)N(c4cccc(Br)c4)C(=O)[C@@]3(Cc3ccccc3)[C@H]2C1=O	x	x	-7	-2	x	3560	x
[O-][n+]1ccc(C2CC2)cc1	3	-4	1	-13	11	9258	4.4
CCOc1ccc2nc(SCC(=O)Nc3ccc4[nH]c(=O)[nH]c4c3)[nH]c2c1	7	5	10	-18	3	4263	5.7
NNC(=O)c1oc2nc(-c3ccc(Cl)cc3)cc(-c3ccccc3)c2c1N	-10	0	-13	-1	-3	3648	3.4
CCOc1c(Br)cc(C(=O)N2CCCN(C)CC2)cc1OC	11	-2	11	-9	11	3690	2.6
CC1(CCC(=O)O)C(=O)CCC2C1CCC1(C)C2CCC1(C)O (configuration not stated)	-3	2	x	-14	2	3970	-0.3
CN(C)S(=O)(=O)c1ccc2c(c1)nc(CCC(=O)O)n2C	10	8	-1	-42	-1	2171	2.1
CCOC(=O)c1cc(-c2ccc(N3CCOCC3)cc2)nn1-c1ccc(F)cc1F	9	x	-6	5	x	2710	2.3
CCOc1cc(/C=N/Nc2nc(C)cc(=O)[nH]2)ccc1O	x	x	-6	-18	x	3698	x
O=C(Cc1c(F)cccc1Cl)OCC(=O)c1ccc[nH]1	3	11	x	-40	1	3531	1.9
COC(=O)[C@H](CC(C)C)N1Cc2cc(OC)cc(OC)c2-c2ccccc2S1(=O)=O	5	0	x	-24	3	3299	4.3
CCN(CC)CCC(C)OC(c1ccccc1)c1ccccc1 (configuration not stated)	6	1	0	-23	6	4434	0.7
CCCCOC(=O)/C(=C/c1cn(C)c2ccccc12)NC(=O)c1ccc(OC)cc1	2	-7	-7	-28	-15	8156	-1.8
Cc1n[nH]c(C)c1N=Nc1cc(Cl)ccc1Cl	-13	20	-4	2	7	3833	5.8
O=C1NN(c2ccccc2)C(=O)/C1=C\c1ccc2c(c1)OCO2	6	9	-9	-26	-5	4120	1.1
CCCCS(=O)c1snnc1C (configuration not stated)	-4	2	-4	-7	3	3844	3.9
C/C(=N\NC(=S)NC(C)C)c1ccco1	x	x	10	-29	x	3092	x
COc1ccccc1CN(C)C(=O)c1ccccc1Sc1ccccc1C#N	-7	-3	3	3	11	5482	5.6
Cc1c(CC(=O)O)c(=O)oc2cc(OCc3nn[nH]n3)ccc12	-3	-1	-7	-16	7	3264	-0.9
COc1ccc(NS(=O)(=O)c2nnc(NC(=O)c3ccccc3F)s2)cc1	9	3	8	-14	7	4421	2.8
Cc1ccc(NC(=O)C2CC(=O)n3ncnc3N2)cc1 (configuration not stated)	-2	5	4	x	10	10120	0.4
CCCS(=O)(=O)c1nc(S(=O)(=O)c2ccc(C)cc2)c(NCCCN(C)C)s1	17	-1	10	-17	6	4288	6.5
O=C(COC(=O)c1ccccn1)Nc1cccc(Cl)c1	18	20	0	-1	-21	2555	20
Cc1nn(-c2ccccc2)c(Cl)c1/C=C1\SC(=S)N(CCCCCC(=O)O)C1=O	18	6	-1	-28	1	4427	37
CCS(=O)(=O)c1ccc2c(c1)NC(=O)C(CCO)O2 (configuration not stated)	5	-10	-3	-13	-10	3818	12
Cc1cc(-n2c(C)cc(C(=O)CSc3nnnn3-c3ccc(Cl)cc3)c2C)no1	2	2	14	-14	4	10170	5.6
CCOC(=O)C1CCN(C/C=C/c2ccccc2[N+](=O)[O-])CC1	3	0	-2	10	2	x	3.3
CCCCSCCCNC(=O)Nc1ccc(CC)cc1	12	4	4	-27	10	4554	-3.1
Cc1cc(C)n2nc(/C(C#N)=C/c3ccccn3)c(C#N)c2n1	4	x	1	-6	x	2205	4.1
COc1cccc(OC(=O)c2ccccc2)c1OC(=O)c1ccccc1	6	5	x	-4	2	3829	6.9

# (listing goes on)
SMILES	Sa ugtP lethal	Mtb hypoxia rep	BJeLR lethal	PrP UTR inh	Mtb hypoxia rep growth	Bead autofluor	RN4220 kill
Cc1ccc2[nH]c3c(c2c1)CN(C(=O)CN1c2ccc(F)cc2CCC1C)CC3 (configuration not stated)	-11	2	0	-10	-2	21807*	-3.5
CN(c1ccc(C(=O)N2CCN(Cc3ccccc3)CC2)cc1)S(=O)(=O)c1ccccc1	8	3	-3	-13	-12	3248	6.4
COc1ccccc1OC(C)C(=O)NNC(=S)NC1CCCC1 (configuration not stated)	8	1	-1	-5	16	4307	-1.7
O=C(CSc1ccccn1)N/N=C/c1cccc([N+](=O)[O-])c1	x	x	-15	-11	x	2647	x
COc1ccc(NC(=O)COC(=O)c2cc(SC)ccc2Cl)c(OC)c1	6	6	-3	-19	2	9655	2.1
Cc1ccc(C=NNS(=O)(=O)c2ccccc2)o1	4	3	x	x	-1	x	6.6
CCOc1ccc(NC(=O)CN2CCCC2c2cccs2)cc1S(=O)(=O)N1CCCCC1 (configuration not stated)	-5	-7	x	-4	8	4151	-3.1
CCN(c1cccc(C)c1)S(=O)(=O)c1ccc2c3c(cccc13)C(=O)N2	-3	13	-4	-1	5	3463	32
O=[N+]([O-])c1ccccc1CN1CCN(S(=O)(=O)Cc2ccccc2)CC1	2	-1	3	-6	0	4403	3.6
O=C(Nc1ccc([N+](=O)[O-])cc1)Nc1ccc2c(c1)OCCO2	1	4	7	-114	-3	4492	-0.1
NS(=O)(=O)c1cc2c(cc1Cl)NC=NS2(=O)=O	4	-10	4	-27	-2	6027	2.1
COc1cc(Cl)c(S(=O)(=O)N2CCCC2)cc1Cl	x	x	6	-54	x	3685	x
O=C(CN(c1ccc2c(c1)OCCO2)S(=O)(=O)c1ccccc1)N1CCN(Cc2ccccc2)CC1	15	-2	-3	-26	-2	4234	5.5
O=C(Nc1ccc2c(c1)OCO2)c1c(F)c(F)c(F)c(F)c1F	-8	6	x	-19	16	18127*	-1.6
CC(=NNC(=O)c1ccccn1)c1c[nH]c2ccccc12	4	13	x	x	3	x	5.1
COc1ccc(C(O)P(=O)(OCC(C)C)OCC(C)C)c(OC)c1 (configuration not stated)	-7	-2	-3	-11	10	2624	4.4
CCOC(=O)c1ccoc1CSCc1ccc(C(=O)OC)o1	1	x	-13	-11	x	2973	0.0
CS(=O)(=O)N1CCN(c2ccc(NC(=S)NC(=O)c3cccs3)cc2)CC1	13	16	6	-18	12	4461	2.5
COc1ccc(CN(C)C(=O)/C=C/c2ccc(S(=O)(=O)N3CCCCCC3)cc2)cc1	4	-1	x	17	-1	3992	-1.3
O=c1[nH]c(NCc2ccccc2)nc2c1CCCC2	0	5	-7	-28	10	9987	3.1

# Quoted at random: two entries already listed
SMILES	Sa ugtP lethal	Mtb hypoxia rep	BJeLR lethal	PrP UTR inh	Mtb hypoxia rep growth	Bead autofluor	RN4220 kill
CC(=NNC(=O)c1ccccn1)c1c[nH]c2ccccc12	4	13	x	x	3	x	5.1
Cc1ccc(C=NNS(=O)(=O)c2ccccc2)o1	4	3	x	x	-1	x	6.6

# (cont.)
SMILES	Sa ugtP lethal	Mtb hypoxia rep	BJeLR lethal	PrP UTR inh	Mtb hypoxia rep growth	Bead autofluor	RN4220 kill
CCc1cccc(NC(=S)Nc2ccc(CN3CCOCC3)cc2)c1	0	10	-9	-23	2	4183	0.4
Cc1n[nH]c(C)c1CCCCOc1ccccc1F	-1	3	3	-14	-2	3648	3.6
O=C1CN(C(=O)COC(=O)/C=C/c2ccco2)c2ccccc2N1	4	0	8	-23	-6	4442	-3.7
COc1ccc(C(C(=O)NC2CCCC2)N(CC2CCCO2)C(=O)Cn2nnc(-c3ccc(C)o3)n2)cc1 (configuration not stated)	5	3	13	-19	2	4859	1.1
COc1ccc(N(C(=O)c2ccco2)C(C(=O)NC2CCCC2)c2cccnc2)c(OC)c1 (configuration not stated)	1	14	3	-8	0	6407	2.2

# Entries of single compounds, quoted from the list. Screens in order: Sa ugtP lethal	Mtb hypoxia rep	BJeLR lethal	PrP UTR inh	Mtb hypoxia rep growth	Bead autofluor	RN4220 kill
# O=C(Nc1ccccc1)c1ccccc1OCc1ccc(F)cc1 as listed: 8	19	2	-25	9	4149	-1.3
# O=C(NC(=S)Nc1ccc(O)cc1)c1ccccc1Cl as listed: 61	-2	-1	-44	-12	3528	5.6
# O=C(Nc1ccc2c(c1)OCO2)c1c(F)c(F)c(F)c(F)c1F as listed: -8	6	x	-19	16	18127*	-1.6

# Compound activity from PubChem BioAssay.
